RE007 growth inh: less growth of the S. pombe RE007 Vpr strain; S. pombe RE007 Vpr strain, BacTiter-Glo ATP luminescence, 24 h; control for the full effect not named in the record; Potency, µM (series often up to 92.2 µM), for inactives: at the highest dose activity change, negative = less growth; actives 0.21% (n = 360,000); active = well fitted falling curve with a large enough effect; inconclusive = small, poorly fitted or top-dose-only effect; inactive = no such curve, though single readings can be large or run the other way;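 further: on the % scale 0 is the no-effect control and ±100 the full control effect; nearly all actives have a fitted effect of over 50% in size; the assay follows cell death caused by Vpr and the record does not say whether a fall means rescue or toxicity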
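Fission yeast strain RE007, carrying one chromosomally integrated HIV-1 vpr copy, was seeded at OD 0.01 in PMG+AL medium with 23 nL pinned compound. After 24 h at 30 °C and 99% humidity, viability was read by BacTiter-Glo luminescence.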
Cruzain Triton: inhibitors of Trypanosoma cruzi cruzain with detergent; purified cruzain, Z-FR-AMC fluorescence, 0.01% Triton; Potency, µM, for inactives: max response, negative = inhibition, actives largely listed as inhibitors; actives 0.43% (n = 200,000);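 further: plate controls were neutral wells for no effect and buffer without enzyme for full effect; nearly all actives have a fitted effect of over 40% in size; top concentration of the series not given in the record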
Target sequence (P25779 123-467 limits assumed): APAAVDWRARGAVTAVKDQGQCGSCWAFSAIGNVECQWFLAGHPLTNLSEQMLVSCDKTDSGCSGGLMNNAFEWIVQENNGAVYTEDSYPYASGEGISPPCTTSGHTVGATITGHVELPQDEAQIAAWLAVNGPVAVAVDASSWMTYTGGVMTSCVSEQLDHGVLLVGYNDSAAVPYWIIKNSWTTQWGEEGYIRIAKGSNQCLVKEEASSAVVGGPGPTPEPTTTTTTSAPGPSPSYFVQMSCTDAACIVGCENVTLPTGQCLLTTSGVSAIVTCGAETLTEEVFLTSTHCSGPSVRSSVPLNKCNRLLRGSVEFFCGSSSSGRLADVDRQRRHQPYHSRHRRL
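Detergent-containing arm of a paired screen for aggregation-based inhibition: 0.01% Triton X-100 present. Cruzain at 1.5 nM cleaved 2 uM Z-FR-AMC at pH 5.5 with 5 mM DTT; AMC fluorescence gain over 60 s measured activity.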
NS1 function inh: blocks influenza NS1 protein function; Potency, µM (top dose mostly 46.1 µM), for the others: at the top dose activity, positive = more growth; S. cerevisiae slowed by influenza A NS1, growth recovery by OD600; actives 0.4% (n = 270,000); active means well fitted rising curve with a large enough effect; inconclusive means small, poorly fitted or top-dose-only effect; inactive means no such curve, though single readings can be large or run the other way; further: nearly all actives have a fitted effect of over 50% in size
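In this qHTS, NS1 from influenza A is expressed in budding yeast, where it slows growth. Cells are switched from glucose to 2% galactose medium (pH 6.0, -URA), treated with compound, and growth recovery is read at OD600.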
2A StopGo: lowers the luciferase signal of an FMDV 2A StopGo reporter | AID 1159524 | Potency, µM (series often up to 57.9 µM), for the others: at the top dose signal change, negative = less light | human cells with a luciferase reporter of 2A StopGo recoding; control for the full effect not named in the record | actives 1.2% (n = 410,000); active = well fitted falling curve with a large enough effect; inconclusive = small, poorly fitted or top-dose-only effect; inactive = no such curve, though single readings can be large or run the other way; tested in HEK293T cells; further: on the % scale 0 is the no-effect control and ±100 the full control effect; nearly all actives have a fitted effect of over 45% in size; luciferase light after 4 h
LASV entry inh: inhibitors of Lassa virus binding or cell entry | Lassa virus pseudotype entry inhibition, cell reporter; control for the full effect not named in the record | AID 540256 | Potency, µM (highest dose often 37.9 µM), for inactives: at the top dose activity change, negative = inhibition, usual class: inhibitors | actives 1.2% (n = 300,000); active means well fitted inhibition curve with a large enough effect; inconclusive means small, poorly fitted or top-dose-only effect, or effect the other way; inactive means flat fitted curve, though single readings scatter; tested in HEK293 cells; further: on the % scale 0 is the no-effect control and ±100 the full control effect; nearly all actives have a fitted effect of over 50% in size; luciferase read-out
SARS PLP yeast: blocks SARS-CoV papain-like protease in a yeast assay. S. cerevisiae expressing SARS-CoV PLpro, growth rescue; control for the full effect not named in the record. Potency, µM (highest dose often 32.9 µM), inactives show top-dose activity, positive = growth rescue. actives 0.19% (n = 330,000). AID 485353; active means well fitted rising curve with a large enough effect; inconclusive means small, poorly fitted or top-dose-only effect; inactive means no such curve, though single readings can be large or run the other way; further: 0% is about no effect; nearly all actives have a fitted effect of over 55% in size; growth read by luminescence after 48 h
Marburg entry inh: Marburg virus entry inhibition; Marburg virus pseudotyped entry inhibition, cell reporter; control for the full effect not named in the record; about a third of the inactives were read at about 46 µM; Potency, µM (doses to about 37.8 µM), without a hit: at the top dose activity change, negative = inhibition, actives largely listed as inhibitors; actives 1.8% (n = 300,000); AID 540276; active = well fitted inhibition curve with a large enough effect; inconclusive = small, poorly fitted or top-dose-only effect, or effect the other way; inactive = flat fitted curve, though single readings scatter; tested in HEK293 cells; about a fifth of its hits are not listed in these tables; further: on the % scale 0 is the no-effect control and ±100 the full control effect; luciferase read-out
Cruzain inh noDet: cruzain (T. cruzi) inhibition without detergent | Potency, µM, for inactives: max response, negative = inhibition, usual class: inhibitors | purified cruzain, Z-FR-AMC fluorescence, no detergent | P25779 | actives 2.3% (n = 200,000);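 further: plate controls were enzyme without inhibitor for no effect and buffer without enzyme for full effect; nearly all actives have a fitted effect of over 40% in size; top concentration of the series not given in the record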
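Detergent-free condition (0.00005% Triton X-100) in acetate buffer pH 5.5 with DTT. 1.5 nM enzyme and compound were pre-mixed 15 min, then 2 uM Z-FR-AMC substrate added; reaction progress from fluorescence change between first and third reads (60 s).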
* marks the source's active call; other numbers are inactive results; ? = inconclusive; · = not tested or not shown; & = joins results of further samples; [ ] = another dose, or the depositor's remark. Unless noted, the call rests on the fitted dose curve; in most records, active means well fitted curve in the direction sought with a large enough effect; inconclusive means small, poorly fitted or top-dose-only effect, or another doubt; inactive means no such curve, though single readings can be large; an effect the other way counts as inactive or inconclusive. Potency means the concentration at half of the fitted maximal effect.

No.	Structure	RE007 growth inh	Cruzain Triton	NS1 function inh	2A StopGo	LASV entry inh	SARS PLP yeast	Marburg entry inh	Cruzain inh noDet
1	COC(=O)c1ccc(NC(=O)c2ccccc2N(C)S(=O)(=O)c2ccccc2)cc1	-8%	-1.5%	-8%	-15%	?	9%	-1%	-1%
2	Cc1ccc(-n2c(=O)c3c(cnn3C)n(CC(=O)Nc3ccc(C)cc3C)c2=O)cc1	·	-0.7%	·	-7%	-5%[46.1 µM]	·	?	26%
3	COCCN(C(=S)Nc1ccc(OC)cc1)C(C)c1cccs1 (centres undefined)	-12%	-5.3%	-2%	30%[activator]	1%	?	16%	-10%
4	COc1ccc(CCCc2nnc(SCC(=O)Nc3cccc(C)c3)o2)cc1C	·	-7.9%	·	-24%	0%[46.1 µM]	·	-3%[46.1 µM]	5%
5	Cc1sc(NC(=O)CSc2nnc(COc3ccccc3)n2C)c(C#N)c1C	-3%	10%	5%	-17%	1%	4%	?	-13%
6	Cc1ccccc1Cn1c(=O)n(Cc2ccc3c(c2)OCO3)c(=O)c2oc3ccccc3c21	·	2.5%	·	10%	8%[46.1 µM]	·	·	8%
7	COc1cccc(CNC(=O)COC(=O)CN(C)S(=O)(=O)c2ccc(NC(C)=O)cc2)c1	8%	·	-5%	-9%	-10%	1%	-18%	·
8	CC1=C(C)/C(=N\OC(=O)/C=C/c2ccccc2)C=CC1=O	?	-9.4%	1%	-22%	1%	4%	?	?
9	COc1cccc(CNC(=O)CC(NC(=O)c2ccccc2)c2ccccc2)c1 (centres undefined)	-2%	·	·	6%	-8%	-9%	-4%	·
10	CCc1ccc(S(=O)(=O)c2nnn3c2nc(Nc2ccc(F)cc2)c2cc(Cl)ccc23)cc1	·	0.4%	·	-11%	·	·	12%[46.1 µM]	6%
11	COc1cc(-c2nc3cnccn3c2Nc2ccccc2)ccc1O	-8%	-3.5%	-31%	-2%	-17%	-5%	-30%	9%
12	COc1ccc2oc(-c3ccncc3)cc(=O)c2c1	-12%	·	·	32%[activator]	-18%[46.1 µM]	·	?	·
13	CCOc1cccc(CN(C)CC2CCCN(CCc3ccc(Cl)cc3)C2)c1O (centres undefined)	-2%	·	0%	-1%	·	0%	·	·
14	O=C(NCc1ccccc1F)C(=O)NCC(c1cccs1)S(=O)(=O)c1cccs1 (centres undefined)	·	-4.9%	·	-6%	-10%[46.1 µM]	·	·	-5%
15	NC(=O)c1ccc(N2CCCCC2)c(N2C(=O)CCC2=O)c1	5%	-1.4%	4%	-18%	19%	-3%	8%	6%
16	CCOC(=O)c1cnc2ccccc2c1NCCc1ccc(OC)c(OC)c1	-2%	-9.1%&-2.0%	-1%	?	0%[46.1 µM]	-1%	?	0%&18%
17	CC1CC1C(=O)N(CCC1=CCCCC1)c1c(N)n(Cc2ccccc2)c(=O)[nH]c1=O (centres undefined)	7%	·	·	-8%	-14%	2%	0%	·
18	CCOc1ccc(NCC(=O)Nc2ccc(C)cc2C)cc1	3%	-1.5%	-47%	·	-14%	-6%	-15%	?
19	COc1ccc(N=C2NC(=O)/C(=C/c3ccco3)S2)cc1	0%	·	-4%	56%[activator]	·	-2%	·	·
20	Cc1ccc(NC(=O)C2(NC(=O)c3ccccn3)CCCCC2)cc1Br	1%	-5.2%	-1%	-15%	-9%	15%	?	?
21	Cc1cc(NC(=O)COC(=O)C2CCN(S(=O)(=O)c3cccc(Cl)c3Cl)CC2)no1	0%	-5.0%	-8%	-17%	-1%	-1%	-5%	10%
22	COc1ccc2oc(C(F)(F)C(F)F)cc(=O)c2c1	5%	-6.7%	-4%	27%	2%	-1%	?	0%
23	COc1ccc2c(c1)c(N1CCCC1=O)c(C(=O)Nc1ccccc1C(F)(F)F)n2C	·	-4.8%	·	?	-28%[46.1 µM]	·	·	-10%
24	Cc1ccc(CC(=O)N2CCN(c3cccc(C(F)(F)F)c3)CC2)cc1	-11%	-8.2%	-30%	-25%	?	-1%	-13%	?
25	CCOC(=O)NC(=O)COC(=O)CCCSc1nc2ccccc2s1	-8%	·	·	-21%	-30%	-2%	-28%[46.1 µM]	·
26	Cc1ccc(-c2cnc(N)n2C)cc1C	3%	1.5%	-5%	0%	21%	-8%	14%	?
27	CCc1cccc(C)c1NC(=O)COC(=O)CNC(=O)c1cccs1	16%	·	·	-11%	4%	1%	7%[46.1 µM]	·
28	COc1ccc(/C=C(/NC(=O)c2ccc(C)cc2)C(=O)NCc2ccncc2)cc1	8%	·	-6%	7%	-2%[46.1 µM]	3%	-6%[46.1 µM]	·
29	O=S(=O)(c1ccc(OCC(O)CN2CCc3ccccc3C2)cc1)N1CCOCC1 (centres undefined)	-2%	9.1%	1%	·	11%	-1%	-1%&4%	9%
30	CCOC(=O)c1oc2ccccc2c1NC(=O)c1cccc(OC)c1OC	1%	-5.1%	1%	0%	?	-13%	?	8%
31	Cc1onc(-c2ccccc2)c1C(=O)N1CCN(C/C=C/c2ccccc2)CC1	-6%	1.7%	-35%	-5%	·	-4%	1%	12%
32	CCOC(=O)C1(Cc2ccc(OC)cc2)CCN(C(=O)Cc2cccnc2)CC1	1%	·	1%	12%	·	1%	·	·
33	COc1ccc(CNC(=O)C2CCN(S(=O)(=O)c3cn(C)cn3)CC2)cc1	·	1.0%	·	-14%	15%[46.1 µM]	·	·	-9%
34	Cc1ccc(C)c(C(C)NC(=O)C2C3CCC(O3)C2C(=O)O)c1 (centres undefined)	·	7.2%	4%	·	·	0%	·	-15%
35	COc1ccc(S(=O)(=O)N2CCN(c3ccccc3)CC2)cc1C(=O)N1CCCC1	2%	·	-7%	-19%	?	-1%	6%	·
36	CC(C)Cn1c(N)c(S(=O)(=O)c2cccs2)c2nc3ccccc3nc21	20%	-1.9%	-4%	0%	?	-1%	-27%	-6%
37	C/C(=N\Nc1cccc(Cl)c1)C1(C)N(O)C(C)(C)C(c2ccco2)=[N+]1[O-] (centres undefined)	24%	·	-3%	-10%	·	1%	·	·
38	CCc1ccc2[nH]cc(C(=O)OCCOC)c(=O)c2c1	0%	-0.6%	0%	4%	16%	-4%	-14%	-6%
39	CCOC(=O)N1CCN(C(=S)NC(=O)c2ccc(Br)cc2)CC1	-17%	·	·	-9%	-26%	?	5%[46.1 µM]	·
40	O=C(/C=C/c1ccc(Cl)cc1Cl)Nc1ccncc1	0%	-16%	-16%	41%[activator]	19%	-20%	?	2%
41	CCOc1ccc(S(=O)(=O)N2CCCC(C(=O)Nc3cccc(C)c3)C2)cc1 (centres undefined)	4%	·	?	-23%	1%	1%	-1%[46.1 µM]	·
42	CC(C)C(=O)Nc1ccccc1C(=O)OCc1cc(=O)n2nc(C3CC3)sc2n1	·	-1.1%	·	-5%	1%[46.1 µM]	·	·	2%
43	O=c1cc(-c2cccc(Cl)c2)oc2cccc(O)c12	2%	·	5%	34%[activator]	·	1%	·	·
44	Cc1ccc(NC(=O)Nc2cccn(Cc3c(F)cccc3Cl)c2=O)cc1	10%	·	-2%	0%	·	0%	·	·
45	COC(=O)C1=C(Nc2ccccc2NC(=O)c2ccccc2C(=O)O)CSC1	-14%	·	-7%	36%[activator]	·	-5%	·	·
46	CCN(Cc1ccccc1)C(=O)Cn1c(=O)n(-c2ccc(Cl)c(Cl)c2)c(=O)c2c(C)c(C(=O)N(C)C)sc21	·	1.3%	·	-15%	27%[46.1 µM]	·	·	?
47	CN1CCN(C(c2ccccc2Cl)c2sc3nc(-c4ccco4)nn3c2O)CC1 (centres undefined)	·	1.1%	·	-10%	11%[46.1 µM]	·	·	0%
48	C=C(C)Cn1c(CCNC(=O)CC)nc2ccccc21	18%	-1.4%	-4%	-19%	12%	1%	?	10%
49	COc1ccccc1N1CCN(C(CNC(=O)C(=O)NCc2cccnc2)c2cccnc2)CC1 (centres undefined)	·	-17%	·	-20%	?	·	·	?
50	COc1ccc(-c2noc(CCCC(=O)NCCc3ccccc3)n2)cc1OC	5%	3.2%	-54%	-16%	-12%	-2%	-5%	?

Continued.
No.	Structure	RE007 growth inh	Cruzain Triton	NS1 function inh	2A StopGo	LASV entry inh	SARS PLP yeast	Marburg entry inh	Cruzain inh noDet
51	COCCSc1ccccc1C(=O)NCc1ccc2c(c1)OCO2	-4%	4.3%	2%	-12%	15%	-2%	22%[46.1 µM]	5%
52	CCOc1ccccc1C=NN1CCCCCC1	2%	·	·	19%	-29%	·	?	·
53	O=C(NCCC1=CCCCC1)c1ccc2c(c1)N(Cc1ccc(F)cc1)C(=O)c1ccccc1S2(=O)=O	·	-0.6%	·	-21%	?	·	?	?
54	O=c1[nH]c2cccc(F)c2n2cccc12	-5%	·	-2%	10%	9%	0%	2%	·
55	O=c1cc(O)cc(/C=C/c2ccc(O)c(O)c2)o1	·	-4.2%	6.3µM*	·	?	·	?	-7%
56	CC(=O)Nc1ccc(N=Nc2ccccc2)cc1	?	-5.7%	-26%	5%	3%	-11%	?	11%
57	COc1cccc(N=NC2C(=O)N(C(N)=S)N=C2C)c1 (centres undefined)	-23%	·	·	50%[activator]	21%	·	2%[14.2 µM]	·
58	O=C(CC1C(=O)NCCN1C(=O)Nc1ccccc1)Nc1cc(Cl)cc(Cl)c1 (centres undefined)	-15%	·	19%	14%	·	-7%	·	·
59	CCN(CC)C(=O)Cn1nnc(-c2ccc(S(C)(=O)=O)cc2)n1	7%	·	2%	-21%	?	0%	7%	·
60	COc1ccc(N(CC(=O)NC2CCCC2)S(=O)(=O)c2c(C)[nH]c(=O)[nH]c2=O)cc1	3%	-0.8%	2%	-12%	·	12%	0%	-7%
61	Cc1ccc(C(=O)COC(=O)C(CC(C)C)NC(=O)C2CCC(C)CC2)cc1 (centres undefined)	·	-11%	·	-10%	-8%[46.1 µM]	·	3%[46.1 µM]	-3%
62	CCOc1ccc(C(=O)/C=C/c2cn(CC(O)CN3CCCCCC3)c3ccccc23)cc1 (centres undefined)	·	-14%	·	-16%	?	·	?	?

Screens as filed in PubChem BioAssay.

Rows were taken by chance; about 4.7% have a hit in one of these screens.
